Env fusion inh: inhibitors of HIV-1 Env-driven cell-cell fusion, primary screen, HeLa-JRFL effector, CEM21 target cells, luciferase. inhibition, % at 12.3 µM. 1.1% of 360,000 active. AID 651610, 2012;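 active = mean replicate inhibition score of at least 50 and every replicate individually at or above 50; inconclusive = only one of the two criteria met; inactive = mean below 50 and not all replicates reaching 50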;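 also: 0% = plate neutral controls and 100% = maraviroc near 300 nM; one replicate is shown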
CSC inhib: cancer stem cell viability inhibitors, primary screen, luminescence; cancer stem cell-like cells viability; 1.1% of 300,000 active; inhibition, % at 7.5 µM;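 active = mean at 75% or more and at least half the replicates too; inconclusive = mean and replicates disagree; tested in HMLE shEcad cells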;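 also: 0% = median of negative and 100% = median of positive control wells; the first replicate is given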
eIF4H FP inh: human eIF4H binding inhibitors, primary screen, translation initiation inhibitor project, biochemical, uHTS, fluorescence polarization. Eukaryotic translation initiation factor 4H (Homo sapiens), Q15056. eIF4H fluorescence polarization binding assay. inhibition, % at 35 µM. 0.94% of 290,000 active;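 active = 50% or more with normal probe brightness, or confirmed in later tests; inconclusive = above 50% with abnormal brightness, or retests that disagree; inactive = below 50% or failed in later tests; about a fifth of its hits are not listed in these tables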;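 also: calls also rest on retests at 20 µM and on dose response follow-up; 0% = protein and probe with vehicle and 100% = probe without protein; strong numbers were not always called active; many hits fall short of the cut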
MT1-MMP act inh: blockers of MT1-MMP proenzyme processing, primary screen, HT1080 RFP-PRO-GFP cells, GFP/RFP fluorescence | Matrix metalloproteinase-14 (Homo sapiens), P50281 | GFP/RFP ratio change, % at 20 µM | AID 651647, 2012 | GFP/RFP ratio fluorescence, overnight; percent of plate control window, DMSO zero | 0.061% of 360,000 active;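 active = GFP/RFP ratio change of at least 30% with cell ATP level not reduced by more than half and red fluorescence within 50% of control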; also: strong numbers were not always called active
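Assay system: RFP-PRO-GFP reporter HT1080 cells; read-out basis: GFP/RFP fluorescence ratio; benchmarks: DMSO wells and RFP-L50D-GFP cells; doses: 20 µM single dose, 1% DMSO; schedule: overnight cell settling, then overnight compound exposure, 37 °C, 5% CO2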
Yeast UUG start: modulators of yeast start codon fidelity, primary screen, whole organism, S. cerevisiae, single point, plate reader; S. cerevisiae UUG-firefly luciferase reporter, luminescence/redox ratio; activity score, % at 18.7 µM; 0.13% of 350,000 active; AID 602363, 2012;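 active = replicate mean at a twofold rise or more, about +100% in these data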;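 also: firefly luciferase made from a UUG start codon reports start codon fidelity; reporter light over untreated wells divided by growth signal over untreated wells; some hits fall short of that in this replicate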
Rce1 inh: yeast Rce1p protease inhibitors, primary screen, biochemical, fluorescence, cell-free homogeneous; calls only; 0.27% of 290,000 active; CAAX prenyl protease 2 (Saccharomyces cerevisiae (strain ATCC 204508 / S288c)), Q03530; yeast membranes, quenched prenylated peptide cleavage fluorescence; AID 2563, 2010;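 active = fall in fluorescence gain of 50% or more versus controls, with final raw signal at or below 3038400; inconclusive = same 50% fall but final raw signal above 3038400; inactive = fall in fluorescence gain under 50%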;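 also: plate controls were neutral control wells for no effect and wells lacking membranes for full effect; tested at 10 µM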
PABP polyA inh: PABP poly(A) RNA binding inhibitors, primary screen, biochemical, fluorescence polarization, uHTS; AID 2014, 2009; 1% of 290,000 active; inhibition, % at 35 µM; Polyadenylate-binding protein 1 (Homo sapiens), P11940;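 active = 50% or more with normal probe brightness, or confirmed in later tests; inconclusive = above 50% with abnormal brightness, or retests that disagree; inactive = below 50% or failed in later tests; about a fifth of its hits are not listed in these tables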;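 also: calls also rest on retests at 20 µM and on dose response follow-up; controls were probe without protein and protein plus probe with vehicle; some compounds called inactive have numbers as strong as hits; many hits fall short of the cut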
Target sequence (P11940 whole entry, looked up): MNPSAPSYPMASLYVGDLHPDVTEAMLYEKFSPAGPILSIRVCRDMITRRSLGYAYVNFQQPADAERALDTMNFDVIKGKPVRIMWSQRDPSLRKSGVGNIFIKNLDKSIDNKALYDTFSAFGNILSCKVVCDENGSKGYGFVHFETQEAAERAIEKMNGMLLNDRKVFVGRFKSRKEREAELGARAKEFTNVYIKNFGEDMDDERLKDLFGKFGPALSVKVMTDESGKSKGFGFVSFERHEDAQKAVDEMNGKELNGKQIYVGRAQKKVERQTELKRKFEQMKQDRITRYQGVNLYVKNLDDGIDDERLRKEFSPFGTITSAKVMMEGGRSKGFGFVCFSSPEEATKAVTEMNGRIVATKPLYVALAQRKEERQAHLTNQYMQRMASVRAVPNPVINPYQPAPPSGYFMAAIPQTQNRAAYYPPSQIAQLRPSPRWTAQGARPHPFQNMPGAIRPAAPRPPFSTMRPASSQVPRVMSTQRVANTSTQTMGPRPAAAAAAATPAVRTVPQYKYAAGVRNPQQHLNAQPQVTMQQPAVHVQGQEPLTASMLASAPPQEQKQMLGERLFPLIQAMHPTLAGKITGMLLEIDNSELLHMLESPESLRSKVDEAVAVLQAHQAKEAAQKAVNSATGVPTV
eIF4H FP inh retest: second read-out of eIF4H FP inh, no call of its own (marks repeat the call); inhibition, %; compound at 20 µM; confirmation average;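 mean of two retest wells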
PABP polyA inh retest: also measured in PABP polyA inh; calls as there; inhibition, %; compound at 20 µM; confirmation repeats;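 mean of two retest wells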
MT1-MMP act inh RFP: recorded beside MT1-MMP act inh, whose call it bears; RFP signal change, %; measured here: RFP expression control read;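 0 = vehicle wells; hits needed this value within 50% of zero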
Active calls of the source: *; i = inactive; ? = inconclusive; . = not tested or not shown.

SMILES	Env fusion inh	CSC inhib	eIF4H FP inh	MT1-MMP act inh	MT1-MMP act inh RFP	Yeast UUG start	Rce1 inh	PABP polyA inh	others
Cn1c(SCC(=O)Nc2ccccc2)nc2ccccc2c1=O	-5	-1	-9	4	-15	-15	i	10
COc1ccc2nc(-c3ccccc3)nc(C3CCCCC3)c2c1	4	54	.	-1	-1	-13	i	.
Cc1ccc(/C=C2/SC(=S)N(c3ccc(S(=O)(=O)Nc4nccs4)cc3)C2=O)cc1	-1	53	51	0	-10	-7	i	4	eIF4H FP inh retest=2;PABP polyA inh retest=8
OCCC1CN(CC#Cc2ccccc2)CCN1Cc1ccccc1F (configuration not stated)	-3	2	-2	5	-3	-1	i	-6
CC1CCCC(NC(=O)CSc2nnc(C(F)(F)F)n2C)C1C (configuration not stated)	-4	.	.	0	1	5	.	.
COC(=O)c1ccc(Cn2cnc3cnccc32)cc1	9	-12	-8	-1	4	7	i	-6
Cc1ccc(C(C(=O)NCc2ccc(F)cc2)N(Cc2ccco2)C(=O)c2snc(C(N)=O)c2N)o1 (configuration not stated)	-4	.	-5	-1	-4	-2	i	0
O=C(O)CN1C(=O)/C(=C/c2ccsc2)SC1=S	4	-18	0	-1	5	-11	i	1
CC(C)CN(C(=O)CSc1ncnc2ccccc12)C1CCS(=O)(=O)C1 (configuration not stated)	9	-10	.	-4	-7	-18	.	.
CC(=O)Cc1cc(O)c2ccccc2c1OC(=O)c1ccc(Br)cc1	17	37	0	-94	-1	.	.	5
Cc1ccc(C)n1-n1cnc2sc(-c3ccccc3)cc2c1=O	.	12	-4	19	-9	2	i	-2
CC(C)Sc1nnc(NC(=O)c2ccc3c(c2)OCO3)s1	-69	1	-11	1	-4	-17	i	-4
Cc1nc(N)nc(N)c1Oc1ccc(Cl)cc1	6	.	.	1	-6	-7	.	.
Cc1ccc(S(=O)(=O)Nc2ccc(C(=O)N3CCN(c4ccccc4O)CC3)cc2)cc1[N+](=O)[O-]	1	.	.	8	-1	16	i	.
O=C(NNS(=O)(=O)c1ccccc1)c1cc2cc3ccccc3nc2s1	-25	-2	14	-1	0	.	i	7
CC(C)N(Cc1ccccc1)S(=O)(=O)c1ccc2c(c1)NC(=O)CO2	2	.	-7	4	-1	-4	i	7
CCc1ccc2[nH]c(=O)c(CN(Cc3ccccc3OC)C(=O)Nc3ccccc3OC)cc2c1	39	-7	-4	3	-11	-16	i	2
CCCNc1nc(Nc2ccc(C)cc2)nc(N2CCCC2)n1	.	36	-4	-5	-8	-14	i	-7
COc1cc(NC(=O)COC(=O)CSc2cc(C)ccc2C)c(C)cc1[N+](=O)[O-]	-20	-12	-7	1	3	-1	i	1
CC1(c2nnc(Cc3ccccc3)o2)CC(c2ccc(Br)cc2)=NO1 (configuration not stated)	12	18	.	.	.	-10	i	.
O=[N+]([O-])c1cc(S(=O)(=O)/N=C(/c2ccccc2)N2CCOCC2)ccc1Cl	27	-13	0	-7	3	.	.	-5
O=C(CCc1c[nH]c2ccccc12)N[C@@H](Cc1c[nH]c2ccc(O)cc12)C(=O)O	-11	-15	0	1	1	-12	i	7
CC(C)CN(C(=O)COC(=O)Cc1c[nH]c2ccccc12)C1CCS(=O)(=O)C1 (configuration not stated)	-38	-7	-1	-2	-2	-4	i	-3
COc1ccccc1N1CCN(C(=O)C2CC(=O)N(c3ccccc3)C2)CC1 (configuration not stated)	11	-18	0	-1	2	-10	i	2
Cc1ccc([N+](=O)[O-])c(OCc2ncc(Cl)n2C)c1	-34	1	-1	0	4	.	i	-8
C=Cn1c(C(=O)O)ccc1-c1ccc(CC)cc1	3	-5	6	-5	4	.	i	4
Cc1cc(-n2c(C)cc(C(=O)COC(=O)CN=C3NS(=O)(=O)c4ccccc43)c2C)no1	.	-9	-3	-3	4	-3	i	9
O=C(CCCOc1ccc(Cl)cc1)NCC1CCCO1 (configuration not stated)	.	-3	0	-2	2	-2	i	12
COc1ccc2c(c1)C(=O)N(c1ccc(C)cc1C)C(=O)C2	-3	30	47	-5	4	-18	i	-2
CC1CC(C)CN(CCCOc2ccccc2[N+](=O)[O-])C1 (configuration not stated)	-19	51	3	4	8	.	i	2
CN(CCNC(=O)C1CCN(S(=O)(=O)N2CCOCC2)CC1)CCc1ccccc1	.	-16	3	-1	0	-8	i	-10
Cc1cc(C)c2c(n1)SCC(=O)N2CC(=O)Nc1ccc(F)cc1	-46	.	-3	-2	3	-11	i	-2
COC(=O)c1c(NC(=O)C2COc3ccccc3O2)sc2c1CCN(Cc1ccccc1)C2 (configuration not stated)	10	35	-10	-5	0	.	i	-4
CCCCOc1ccc2c(c1)/C(=C(\C(Cl)=C(Cl)Cl)[N+](=O)[O-])N2	38	-12	8	-19	4	17	i	-6
CCn1c(SCC(=O)Nc2cc(C)on2)nnc1-c1ccc(C)cc1	8	10	-6	3	-1	-3	i	0
Nc1nnc(SCCOc2cccc(Br)c2)s1	-30	15	-15	6	-7	-9	i	-11
CCOC(=O)c1c(-c2ccccc2)oc2ccc(OC(C)=O)cc12	.	20	1	-5	-4	-10	i	-3
COc1ccc(-c2nn(C)c(=O)c3ccccc23)cc1NS(C)(=O)=O	-62	16	-4	3	13	11	i	-6
Cc1oc(CSCC2CCCO2)cc1C(=O)O (configuration not stated)	.	-4	22	2	4	-3	i	18
COc1ccc(C(=O)NC2CC2)cc1OC1CCN(Cc2ccccc2O)CC1	-7	-5	-4	1	3	-19	i	-14
CCOc1ccccc1OCCC(=O)OCC(=O)Nc1c(C)cc(C)cc1C	-4	-6	.	0	0	-8	i	.
COc1cc(OC)c(OC)cc1CNCCNC(=O)c1ccco1	0	-4	5	2	3	.	i	-2
COc1ccc(C(=O)Oc2c(OC)cc(C(=S)N3CCOCC3)cc2OC)cc1	-8	-14	-4	3	-3	-5	i	10
Cc1ccc(S(=O)(=O)N2c3cc(C)ccc3OCC2C(C)(C)C)cc1 (configuration not stated)	34	53	2	-6	-14	-1	i	-2
Cc1cc2nccc(-c3ccncc3)n2n1	34	0	0	-8	-8	.	i	-2
COc1cc(/C=C2\C(=N)N3N=C(C)SC3=NC2=O)cc(OC)c1OCCOc1ccccc1C	0	1	5	-5	-6	-28	i	16
COc1cccc(C(NC(C)=O)c2ccc3cccnc3c2O)c1 (configuration not stated)	12	58	15	4	-3	-17	.	-11
CCc1ccccc1NC(=O)NC1CC2CCC(C1)N2Cc1ccco1 (configuration not stated)	2	-2	-17	-5	-1	.	i	3
Cn1c(C(=O)c2ccccc2[N+](=O)[O-])nc2ccccc21	7	13	0	-2	2	.	i	-6
CCCCN(C)C(=S)Nc1ccsc1C(=O)OC	16	2	-10	0	0	.	i	-8
NS(=O)(=O)c1ccc(NC(=S)NNC(=O)CCC(=O)Nc2ccccc2Cl)cc1	16	-8	-6	-1	-4	-3	i	-1
CSc1nc(-c2ccccc2)cc(C(F)(F)F)c1C#N	-3	.	1	-5	-1	.	i	-5
O=C(COC(=O)c1ccc(F)cc1Cl)NCc1ccco1	-28	.	.	0	0	-17	.	.
CCOC(=O)C1=C(C)N(C)C(=O)NC1c1c(C)nn(-c2ccccc2)c1C (configuration not stated)	.	-1	-8	2	2	-2	i	-5
Cc1ccc(OCc2nnc(SCC(=O)NCc3ccccc3)n2C)cc1	.	.	1	3	5	.	i	-3
CN(Cc1ccc(O)cc1)C1CCCCC1	-15	4	-2	6	8	4	i	6
CC(=O)Nc1ccc(NC(=O)c2cccc(C(=O)OC(C)C)n2)cc1	-10	19	11	-4	-6	4	i	11
CN1CCC/C1=C/C=C1\SC(=S)NC1=O	8	-10	?	-83	4	.	.	40
COc1cc(C(=O)NC(=S)N2CCN(C)CC2)cc(OC)c1OC	-20	-16	.	1	0	-7	.	.
CC(C)Oc1ccc2c(c1)OC(c1ccccc1)(C(F)(F)F)NC2=O (configuration not stated)	-61	2	-2	-2	-3	-17	i	-1

Further structures follow.
SMILES	Env fusion inh	CSC inhib	eIF4H FP inh	MT1-MMP act inh	MT1-MMP act inh RFP	Yeast UUG start	Rce1 inh	PABP polyA inh	others
COc1ccc(S(=O)(=O)n2nc(OC(=O)c3ccccc3)cc2N)cc1	-5	-12	7	12	14	-13	i	-6
O=C(NCc1cc(C(F)(F)F)ccc1Cl)c1cccc2c1C(=O)c1ccc(N3CCCCC3)cc1S2(=O)=O	-11	.	.	-110	-1	-15	.	.
CCn1cc(CCC(=O)NC2CCCC2)c2ccccc21	-7	-10	-4	0	2	-7	i	-7
CN(C)CCNC(=O)C(=O)NCC1OCCN1S(=O)(=O)c1ccc([N+](=O)[O-])cc1 (configuration not stated)	2	16	10	1	2	.	i	2
CN(CC(=O)Nc1cccc(S(=O)(=O)NC2=NCCCCC2)c1)Cc1ccc(C(C)(C)C)cc1	35	16	2	-1	-10	.	i	2
CCC(C)NC(=O)CN(c1ccc(Cl)c(Cl)c1)S(C)(=O)=O (configuration not stated)	8	-10	4	-1	1	0	.	-9
O=C(Nc1nc(-c2ccccc2)cs1)c1cccs1	.	-2	-5	-43	-32	-5	i	8
CCOC(=O)c1c(NC(=O)c2ccn(CC)n2)sc2c1CCCC2	9	44	-13	-1	-5	-12	i	8
Cc1ccc(CNC(=O)C2CCN(S(=O)(=O)N3CCCC3)CC2)cc1	-2	-5	.	-1	0	-19	i	.
N/C(=N\c1nc2ccccc2o1)NC(=O)/C=C/c1ccccc1	-72	-14	-3	1	-8	.	i	0
Cc1ccccc1S(=O)(=O)Cc1ccc(C(=O)NCCN(C)Cc2ccccc2)o1	0	-1	50	.	.	.	i	-2	eIF4H FP inh retest=-7;PABP polyA inh retest=2
COc1cc(OC)cc(C(=O)N2CCN=C2SCc2cccnc2)c1	13	-12	-2	-1	-2	-12	i	3
C/C(=C\C(=O)c1ccccc1)NNC(=O)c1ccc(Cl)cc1	2	44	5	1	0	-7	i	-11
CCCCOc1ccc(C(=O)Nc2ccc(CN3CCOCC3)cc2)cc1	14	.	6	-2	-21	5	i	6
Cc1cccc(N2Cc3ccccc3C2=NC(=O)c2ccc(Cl)nc2)c1	-97	-8	-8	-1	5	-9	.	-8
O=C(COC(=O)c1ccccc1O)Nc1cccnc1Cl	-7	-2	-7	6	6	.	i	-8
CCC(C)(C)n1nnnc1C(c1ccncc1)N1CCC(C)CC1 (configuration not stated)	.	-9	-6	1	2	-18	i	-11
Cc1ccc(CCN2CC(C(=O)NCCC(C)C)CC2=O)cc1 (configuration not stated)	1	.	-4	2	1	-11	i	4
CCN(CC)CC(C)OC(=O)c1cc(OC)c(OC)c(OC)c1 (configuration not stated)	15	-2	6	7	6	-12	i	1

Two compounds picked at random from those above:
SMILES	Env fusion inh	CSC inhib	eIF4H FP inh	MT1-MMP act inh	MT1-MMP act inh RFP	Yeast UUG start	Rce1 inh	PABP polyA inh	others
CCOC(=O)c1c(NC(=O)c2ccn(CC)n2)sc2c1CCCC2	9	44	-13	-1	-5	-12	i	8
CC1CCCC(NC(=O)CSc2nnc(C(F)(F)F)n2C)C1C (configuration not stated)	-4	.	.	0	1	5	.	.

Screening data (PubChem BioAssay)
